Source: PubChem (several laboratories)
Rce1 inhib = inhibitors of yeast Ras-converting enzyme; yeast membranes, quenched prenylated peptide cleavage fluorescence; calls only; hit rate 0.27% among 290,000;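 active = fall in fluorescence gain of 50% or more versus controls, with final raw signal at or below 3038400; inconclusive = same 50% fall but final raw signal above 3038400; inactive = fall in fluorescence gain under 50%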;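 also: plate controls were neutral control wells for no effect and wells lacking membranes for full effect; tested at 10 µM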
Target sequence (Q03530 whole entry, looked up): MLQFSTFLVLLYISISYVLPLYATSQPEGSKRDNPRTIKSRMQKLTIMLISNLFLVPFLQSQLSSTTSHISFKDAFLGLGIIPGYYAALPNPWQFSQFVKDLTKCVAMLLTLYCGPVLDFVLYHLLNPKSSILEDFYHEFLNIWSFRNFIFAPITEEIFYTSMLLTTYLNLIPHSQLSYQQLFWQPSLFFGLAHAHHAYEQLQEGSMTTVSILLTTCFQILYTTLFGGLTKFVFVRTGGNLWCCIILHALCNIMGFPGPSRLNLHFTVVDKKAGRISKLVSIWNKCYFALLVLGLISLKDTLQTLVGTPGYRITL
PABP polyA inh = PABP-poly(A) binding inhibition | P11940 | PABP-poly(A) RNA binding, fluorescence polarization | inhibition, % at 35 µM | hit rate 1% among 290,000 | AID 2014;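 active = 50% or more with normal probe brightness, or confirmed in later tests; inconclusive = above 50% with abnormal brightness, or retests that disagree; inactive = below 50% or failed in later tests; about a fifth of its hits are not listed in these tables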;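 also: calls also rest on retests at 20 µM and on dose response follow-up; controls were probe without protein and protein plus probe with vehicle; some compounds called inactive have numbers as strong as hits; many hits fall short of the cut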
Target sequence (P11940 whole entry, looked up): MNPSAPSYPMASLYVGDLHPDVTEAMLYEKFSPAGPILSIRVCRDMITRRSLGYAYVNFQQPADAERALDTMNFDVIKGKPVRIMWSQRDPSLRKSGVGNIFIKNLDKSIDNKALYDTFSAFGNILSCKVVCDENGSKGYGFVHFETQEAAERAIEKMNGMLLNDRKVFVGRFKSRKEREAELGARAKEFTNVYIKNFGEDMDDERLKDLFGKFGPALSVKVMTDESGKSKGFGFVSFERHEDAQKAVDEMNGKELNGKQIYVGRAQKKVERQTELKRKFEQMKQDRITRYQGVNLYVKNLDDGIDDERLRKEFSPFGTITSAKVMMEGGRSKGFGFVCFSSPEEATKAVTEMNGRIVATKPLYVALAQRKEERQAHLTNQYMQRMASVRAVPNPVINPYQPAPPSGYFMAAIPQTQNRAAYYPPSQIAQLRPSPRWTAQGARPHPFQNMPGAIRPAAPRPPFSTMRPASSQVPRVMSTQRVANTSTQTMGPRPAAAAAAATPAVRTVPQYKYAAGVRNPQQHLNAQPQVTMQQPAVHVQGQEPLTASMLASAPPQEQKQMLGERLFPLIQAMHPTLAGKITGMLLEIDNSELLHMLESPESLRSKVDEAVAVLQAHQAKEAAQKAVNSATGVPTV
HIV Env fusion = HIV envelope-mediated fusion inhibition; hit rate 1.1% among 360,000; inhibition, % at 12.3 µM; HeLa-JRFL Env/CEM21 cell fusion, luciferase;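 active = mean replicate inhibition score of at least 50 and every replicate individually at or above 50; inconclusive = only one of the two criteria met; inactive = mean below 50 and not all replicates reaching 50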;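 also: 0% = plate neutral controls and 100% = maraviroc near 300 nM; one replicate is shown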
eIF4H inh = inhibitors of RNA binding by human eIF4H. eIF4H fluorescence polarization binding assay. inhibition, % at 35 µM. Q15056. hit rate 0.94% among 290,000;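 active = 50% or more with normal probe brightness, or confirmed in later tests; inconclusive = above 50% with abnormal brightness, or retests that disagree; inactive = below 50% or failed in later tests; about a fifth of its hits are not listed in these tables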;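 also: calls also rest on retests at 20 µM and on dose response follow-up; 0% = protein and probe with vehicle and 100% = probe without protein; strong numbers were not always called active; many hits fall short of the cut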
CSC inhib = cancer stem cell inhibition; cancer stem cell-like cells viability, luminescence; inhibition, % at 7.5 µM; hit rate 1.1% among 300,000; AID 2717;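 active = mean at 75% or more and at least half the replicates too; inconclusive = mean and replicates disagree; tested in HMLE shEcad cells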;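 also: 0% = median of negative and 100% = median of positive control wells; the first replicate is given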
UUG fidelity = alters start codon recognition fidelity in yeast; S. cerevisiae UUG-firefly luciferase reporter, luminescence/redox ratio; activity score, % at 18.7 µM; hit rate 0.13% among 350,000; AID 602363;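 active = replicate mean at a twofold rise or more, about +100% in these data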;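 also: firefly luciferase made from a UUG start codon reports start codon fidelity; reporter light over untreated wells divided by growth signal over untreated wells; some hits fall short of that in this replicate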
MT1-MMP act inh = blocks activation of human MT1-MMP; HT1080 RFP-PRO-GFP cells, GFP/RFP ratio fluorescence, overnight; percent of plate control window, DMSO zero; GFP/RFP ratio change, % at 20 µM; hit rate 0.061% among 360,000;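 active = GFP/RFP ratio change of at least 30% with cell ATP level not reduced by more than half and red fluorescence within 50% of control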; also: strong numbers were not always called active
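Test system: HT1080 cells expressing an RFP-PRO-GFP fluorescent reporter construct / Compound dosing: single-point 20 µM compound, 1% DMSO / Schedule: cells overnight before dosing, compound overnight, 37 °C, 5% CO2 / Evaluation: GFP/RFP fluorescence ratio / Control set: DMSO and RFP-L50D-GFP cell wells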
eIF4H inh retest = also measured in eIF4H inh; calls as there; inhibition, %; compound at 20 µM; confirmation average;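 mean of two retest wells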
PABP polyA inh retest = further read-out of PABP polyA inh, marked with its call; inhibition, %; compound at 20 µM; confirmation repeats;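 mean of two retest wells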
MT1-MMP act inh RFP = recorded beside MT1-MMP act inh, whose call it bears; RFP signal change, %; measured here: RFP expression control read;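 0 = vehicle wells; hits needed this value within 50% of zero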
* marks the source's active call; other numbers are inactive results; i = inactive; u = inconclusive; x = no result given.

SMILES	Rce1 inhib	PABP polyA inh	HIV Env fusion	eIF4H inh	CSC inhib	UUG fidelity	MT1-MMP act inh	MT1-MMP act inh RFP	others
O=C1CC(=C2c3ccccc3-c3ccccc32)C(=O)N1CCN1CCN(c2cccc(Cl)c2)CC1	x	x	-7	x	-13	-11	5	2
Cc1nn(-c2ccccc2)c(C)c1/C=N/O	i	6	x	3	-6	-30	2	2
COc1ccc(NC(=O)CSc2ccccn2)cc1	x	4	-26	-5	-18	-9	-5	0
COc1ccc2c(c1)CCc1c(C(=O)N3CCc4ccccc4C3)noc1-2	i	13	-19	-7	30	x	-1	2
c1ccc(-c2ccc(C3=Nn4c(Cn5nnc6ccccc65)nnc4SC3)cc2)cc1	i	-10	x	-5	-4	-19	2	-10
Cc1nnc(SCC(=O)n2c3c(c4ccccc42)CCCC3)s1	i	-8	x	-9	8	-23	-1	1
CCCNC(=O)c1cc(-c2ccc(Br)cc2)on1	i	-5	-155	4	-1	-21	-2	-3
COc1ccc(NC(=O)c2sccc2C)c([N+](=O)[O-])c1	i	4	i	-2	-7	-4	1	2
CCOc1ccc(-c2nnn(CC(=O)Nc3ccccc3OC)n2)cc1OCC	i	-4	5	-8	-1	-9	2	3
CCC(O)(CC)C(=O)N/N=C/c1cc(Br)cc(Br)c1O	i	13	21	16	u	-21	x	x
O=C(N/C(=C\c1cccc([N+](=O)[O-])c1)C(=O)N1CCCCC1)c1cccs1	i	-2	-8	-5	1	-10	-1	1
CN(CC(=O)Nc1ccc(N2CCOCC2)cc1)CC(=O)Nc1ccc([N+](=O)[O-])cc1Br	i	5	0	-4	17	x	-1	3
COc1ccc(C2=CC3=C(Br)C(=O)C(C)(OC(=O)c4ccc(Cl)nc4)C(=O)C3=CO2)cc1 (stereo unspecified)	i	42*	x	86	-20	x	x	x	eIF4H inh retest=34;PABP polyA inh retest=96*
O=C(OCC(=O)N1CCN(c2ccccc2)CC1)c1nc(Cl)ccc1Cl	x	x	-141	x	-7	-10	-1	1
CCOC(=O)C1(C)Oc2ccccc2C(C(=O)OC)=C1C(=O)OC (stereo unspecified)	x	x	-54	x	x	-8	1	0
COCc1cc(C)n(CC(=O)Nc2cccc(C)c2)c(=O)c1C#N	i	8	-3	-10	-12	-36	-2	0
COC(=O)c1ccc(COC(=O)c2cnccn2)cc1	i	1	-24	2	-13	x	1	6
CSc1nc(C)cc(OCCNS(=O)(=O)c2ccc(C)cc2)n1	i	x	x	x	-3	x	-1	-4
Cc1ccc(S(=O)(=O)N2CCCCC2)cc1NC(=O)C1CC(=O)N(Cc2ccccc2)C1 (stereo unspecified)	i	14	x	1	-1	18	16	-1
Cc1cccc(Cl)c1OCCN1CCCC1	i	5	-79	-19	1	-18	-1	-1
O=C(CN1C(=O)C2C3C=CC(C4CC34)C2C1=O)Oc1ccccc1 (stereo unspecified)	i	-1	-11	6	-11	-19	4	3
CC(C)(C)c1ccc(OCC(=O)N2CCCCCC2)c(Br)c1	i	0	1	-5	29	x	2	-3
Cc1ccc(N(CC(=O)N2CC(=O)Nc3ccccc32)S(=O)(=O)c2ccc3c(c2)OCCO3)cc1	x	2	-81	3	1	-4	-11	-3
COc1ccccc1NC(=O)c1ccc2c(c1)N(CC#N)C(=O)C(C)(C)O2	i	7	3	2	0	12	1	-4
CCOC(=O)/C(C#N)=C\C=C1C=CN(C)C=C1	i	u	x	u	0	11	-130	5
(cont.)
SMILES	Rce1 inhib	PABP polyA inh	HIV Env fusion	eIF4H inh	CSC inhib	UUG fidelity	MT1-MMP act inh	MT1-MMP act inh RFP	others
Cn1nc(C(C)(C)C)c([N+](=O)[O-])c1C(=O)NCCO	i	-14	x	-6	-9	x	0	3
Cc1oc(-c2ccccc2)cc1C(=O)Nc1ccc(N(C)C)cc1	i	-4	x	-6	6	x	11	0
CC1CCN(c2ccc3c(c2)S(=O)(=O)c2ccccc2C3=O)CC1	i	x	-96	x	34	-25	-124	-5
Cc1nnc(SCC(=O)N2CCN(C(=O)c3ccco3)CC2)n1C	x	x	x	x	1	-17	4	5
COc1cc(/C=C(\C#N)c2nc3ccc(C)cc3[nH]2)cc([N+](=O)[O-])c1O	x	29	-15	24	x	x	24	2
Cc1[nH]n(-c2ccccc2)c(=O)c1/C=N/O	i	4	x	-14	0	-6	7	1
CC(=O)Nc1ccc(NC(=O)C(c2ccccc2)c2ccccc2)cc1	i	6	-9	-4	-12	-11	3	0
CS(=O)(=O)N1c2ccccc2[C@]2(Br)C[C@H]3C(=O)N[C@@H](Cc4ccccc4)C(=O)N3[C@H]12	i	x	19	x	x	-12	-3	0
Cc1occc1C(=O)NCc1cccs1	i	22	x	-5	-6	-5	-5	-1
O=C(COC(=O)c1ccc2c(c1)C(=O)N(c1cccc3ncccc13)C2=O)c1ccc(Cl)cc1	i	14	-5	2	x	-50	-1	4
O=c1c2[nH]c3ccccc3c2ncn1Cc1ccco1	i	0	x	-9	-3	-25	2	5
COc1ccccc1OCC(=O)Nc1cccc(-c2nc3ccccc3o2)c1	i	5	x	-5	-1	x	7	3
CCC1=C/C(=C/N(C)c2ccccc2)C(=O)S1	i	80*	-5	53*	x	-25	-13	-1
CCOC(=O)c1nn(-c2sc(C(=O)OC)c(C)c2C(=O)OC)cc1O	i	11	x	-2	-9	-8	0	0
O=C(Cc1cccs1)N(c1ccc(Cl)cc1)C1C=CS(=O)(=O)C1 (stereo unspecified)	i	4	32	-1	1	-25	2	1
O=C(COC(=O)CNS(=O)(=O)c1c(Cl)cccc1Cl)Nc1ccccc1Sc1ccccc1	i	-13	x	-15	1	-3	0	1
COC(=O)Nc1ccc(S(=O)(=O)Nc2ccc(C(=O)O)cc2)cc1	i	-2	-1	8	-11	x	-2	5
Cc1ccc(-c2nc3ncccc3o2)cc1NC(=O)c1ccco1	i	x	-38	x	-11	-11	0	0
COC(=O)c1ccc(CSc2nnc(-c3c[nH]c4ccccc34)n2C)o1	i	-6	-17	-15	-9	-20	2	4
c1ccc(-c2cc(N3CCCCC3)c3ccccc3n2)cc1	i	5	12	32	39	x	3	-2
Cc1ccc(NC(=O)CSc2nc(=O)n(Cc3ccncc3)c3c2CCC3)c(C)c1	i	x	0	x	-14	-8	-3	-1
CN(CC(=O)Nc1nc2ccccc2s1)S(=O)(=O)c1ccccc1	i	-7	x	-3	-15	-11	10	0
O=c1[nH]c(Cc2ccccc2)nc2ccccc12	i	4	-4	-8	10	x	-2	-1
Cc1cc(C)cc(NC(=S)N2CCC(NC(=O)c3ccccc3C)CC2)c1	i	7	-39	-8	-12	x	6	-2
CC1=C(c2ccc(Cl)cc2)[N+](=O)C(C)(C)N1[O-]	i	3	11	1	-4	x	-1	1
The listing continues.
SMILES	Rce1 inhib	PABP polyA inh	HIV Env fusion	eIF4H inh	CSC inhib	UUG fidelity	MT1-MMP act inh	MT1-MMP act inh RFP	others
Nc1nc(COC(=O)C2CC(=O)N(CCc3ccccc3)C2)nc(Nc2ccccc2)n1 (stereo unspecified)	x	x	x	x	-20	-23	4	2
Clc1ccc(OCc2nn3c(-c4ccncc4)nnc3s2)cc1	i	-5	x	1	-14	x	1	-4
COc1ccc(NC(=O)CSc2ccc(-c3ccco3)nn2)cc1	i	7	1	12	-6	-2	3	-3
NNC(=O)CNC(=O)c1ccccc1F	i	11	-68	2	-5	-26	1	2
COc1ccc(NC(=O)CN(C)C(=O)CN2C(=O)c3ccc([N+](=O)[O-])cc3C2=O)cc1	i	-3	-9	-11	-7	-12	-2	3
Cc1ccc(N2CCN(S(=O)(=O)N(C)C)CC2)c(C)c1	i	2	-1	0	-2	-19	-10	-1
COc1cccc(-c2noc(C3CCCN(C(=O)c4ccccc4OC)C3)n2)c1 (stereo unspecified)	i	-2	17	-6	-9	0	6	-8
Cc1ccccc1NC(=O)CN1CCC(NC(=O)Nc2ccccc2)CC1	i	4	4	0	-8	x	2	-2
N#Cc1ccsc1NC(=O)CN(Cc1ccccc1)Cc1ccccc1	i	-15	u	11	23	-16	-4	-7
Fc1cccc(Cl)c1C1Nc2cccc3cccc(c23)N1	i	87*	7	96*	-4	-17	-2	2
O=C(Nc1cccnc1)c1ccc(COc2ccccc2Br)o1	i	9	-16	9	8	-2	8	-3
CCN(CC)C(=O)CSc1nnc(-c2ccccn2)n1-c1ccc(C)c(C)c1	i	-3	-30	-6	-3	-13	-3	-1
Cc1ccc(C(=O)N/C(=C\c2cn(C)c3ccccc23)C(=O)N2CCN(C)CC2)cc1	i	6	3	-7	-8	1	1	2
O=C1COc2ccc(C(=O)COC(=O)C3CCN(S(=O)(=O)c4cccs4)CC3)cc2N1	i	0	-18	-1	-5	-24	-2	5
CC1CCN(C(=O)c2[nH]cnc2C(=O)Nc2ccccc2)CC1	x	x	1	x	x	-11	4	2
Cn1c(=O)[nH]c(=O)c2c1nc(N1CCNCC1)n2Cc1ccccc1Cl	i	-1	-10	3	-5	-20	-5	2
Cc1ccc(S(=O)(=O)Nc2ccc(Cl)cc2C(=O)c2ccc(F)cc2)cc1	i	17	5	1	28	0	-4	-1
COc1ccc(Cl)cc1NC(=O)CN(C)Cc1ccc(OC)c(OC)c1	i	8	11	12	10	20	1	-2
COc1cccc(CN2C(=NC(=O)C3CCCO3)SC3CS(=O)(=O)CC32)c1 (stereo unspecified)	x	x	5	x	x	-27	-1	5
O=C(Nc1cccc(Cl)c1)c1nc[nH]c1C(=O)N1CCN(c2ccccc2)CC1	x	x	-13	x	-19	-14	5	5
CN(C)S(=O)(=O)c1ccc(Cl)c(NC(=O)COC(=O)CC(NC(N)=O)c2ccc(Cl)cc2)c1 (stereo unspecified)	i	10	-10	-9	-13	-8	-4	-3
O=C(CC(c1ccccc1)c1ccccc1)OCn1nnc2ccccc2c1=O	i	0	x	0	-9	-17	4	3
COCC(=O)Oc1c(S(=O)(=O)c2ccc(C)cc2)c(C)nn1-c1ccccc1	i	-5	x	-13	-4	-12	-1	7
O=C(COC(=O)C1=COCCO1)Nc1ccc(OC(F)F)cc1	i	4	u	6	-8	x	2	6
Cc1ccsc1/C=C(/C#N)C(=O)NCc1ccccc1	i	-7	x	0	-5	-29	-1	4
(list continues)
SMILES	Rce1 inhib	PABP polyA inh	HIV Env fusion	eIF4H inh	CSC inhib	UUG fidelity	MT1-MMP act inh	MT1-MMP act inh RFP	others
Cc1cc(C)c(C)c(S(=O)(=O)N2CCN(C(=O)CCC(=O)N3CCOCC3)CC2)c1C	i	7	-3	-6	-19	x	2	-3
COC(=O)CNC(=O)c1cccc(F)c1	i	1	x	-6	-4	-3	-3	1
Cc1cccc(CCNC(=O)Cc2ccc(NC3=NC4CS(=O)(=O)CC4S3)cc2)c1 (stereo unspecified)	i	2	-8	-7	x	-9	-2	3
O=C(N/N=C/c1cnc(N2CCCCC2)s1)c1ccc(Cl)cc1	i	0	10	0	5	x	2	-6
CC1Cc2nc(SCC(=O)Nc3ccccc3F)n(C)c(=O)c2S1 (stereo unspecified)	i	0	x	-8	-9	-10	4	-4
Cc1nn(-c2ccccc2)c(C)c1C(=O)OC(C)C(=O)NC1CCCCC1 (stereo unspecified)	x	x	36	x	2	-5	16	-28
CCc1nn(CC(=O)NCCCN2CCc3ccccc3C2)c(=O)c2cc3sccc3n12	i	-19	8	-8	-6	32	2	2
NC(=S)c1cc2cc(Cl)ccc2oc1=O	i	3	13	10	3	-15	0	-2
O=C(NCCc1ccccc1)c1ccncc1	i	-2	x	7	x	x	x	x
